# D2 antag: antagonizes the human D2 dopamine receptor. P14416. HEK293 TREx D2 cells, calcium flux, dopamine EC80. inhibition, % at 10 µM. 340,000 compounds, 2% hits. AID 485344; in the data active = inhibition above about 30%; note: 0% is about no effect
# Target sequence (P14416 whole entry, looked up): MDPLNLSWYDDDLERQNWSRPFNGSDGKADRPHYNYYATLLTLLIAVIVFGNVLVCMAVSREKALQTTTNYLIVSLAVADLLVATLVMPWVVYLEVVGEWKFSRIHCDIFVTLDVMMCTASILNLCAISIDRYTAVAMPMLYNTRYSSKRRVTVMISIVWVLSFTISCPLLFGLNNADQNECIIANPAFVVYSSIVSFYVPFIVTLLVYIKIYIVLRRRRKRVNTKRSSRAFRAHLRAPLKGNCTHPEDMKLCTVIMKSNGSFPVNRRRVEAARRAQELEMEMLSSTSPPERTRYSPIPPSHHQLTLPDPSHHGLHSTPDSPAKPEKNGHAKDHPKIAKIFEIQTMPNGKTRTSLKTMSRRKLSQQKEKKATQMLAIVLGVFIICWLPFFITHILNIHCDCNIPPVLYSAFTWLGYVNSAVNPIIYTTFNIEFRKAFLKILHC
#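 Calcium flux kinetic readout in an inducible HEK293 TREx D2 line plated overnight at 30 C. After 180 s compound exposure, an EC80 dopamine challenge follows with another 180 s kinetic read to detect antagonism.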
# D2 agonist: agonists of human D2 dopamine receptor; HEK293 T-REx D2 cells, calcium flux agonist mode; AID 485358; activation, % at 2 µM; 340,000 compounds, 0.53% hits; P14416;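 active = activation over 3 SD above normal in the single-dose calcium agonist read, cut at about 30% in these data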; note: 0% is about no effect
#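 In this primary screen, compounds producing a positive calcium signal within 180 s of addition to tetracycline-induced, force-coupled HEK293 Trex D2 cells are flagged; cells are dye-loaded with a no-wash calcium kit beforehand.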
# GRP78 ERSR act: inducers of ER stress response in human glioma cells | U87-MG GRP78 promoter luciferase reporter, 16 h | Potency, µM, without a hit: at the highest dose activation, actives largely listed as activators | 420,000 compounds, 0.02% hits | AID 602332; note: potency is the fitted concentration of half-maximal effect; series mostly up to about 76 µM; % of control where 0% means no effect; nearly all actives have a fitted effect of over 35% in size
#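 ERSR induction read as luciferase luminescence (Bright-Glo, 10 min at room temperature) in stably transfected human U87-MG glioma cells exposed to compounds for 16 h, using GRP78 as sensor.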
# ERG-DNA inh: inhibitors of human ERG Ets domain-DNA interaction; 370,000 compounds, 0.028% hits; Potency, µM (titrated, usually from 76.9 µM), inactives show top-dose FP activity, negative = inhibition, most hits filed as inhibitors; fluorescence polarization, His-ERG Ets domain / labelled DNA; AID 624246; P11308; active = well fitted inhibition curve with a large enough effect in the polarisation, with a control signal flat; inconclusive = small, poorly fitted or top-dose-only effect, or effect the other way, or a change in a side signal; inactive = no such curve, though single readings can be large or run the other way; the % refers to the polarisation;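 note: polarization taken with two DNA probes labelled with fluorescein and Texas red; potency is the fitted concentration of half-maximal effect; % of control where 0% means no effect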
#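 His-tagged ERG Ets domain (1 uM in the protein solution; 300mM KCl, 50mM Tris-HCl, 1mM EDTA, 1mM DTT, pH 7.5) received compound, then a probe mix of 5 nM fluorescein-DNA and 100nM Texas-615-DNA. Fluorescence polarization was read for both dyes.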
# LDHA block: LDHA (human) enzyme inhibition; AID 1347041; purified LDHA, NADH/diaphorase-resazurin fluorescence; stronger effect = lower value; activity change, % (values are at about 110 or 230 µM); 480,000 compounds, 0.15% hits; P00338; in the data active = activity change below about -30%; inconclusive = mostly about -25% to -30%;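 note: plate controls were DMSO wells for no effect and wells without enzyme for full effect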
#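 Human LDH5 at 2 nM final in Tris HCl pH 7.4 with 0.06 mM NADH and 0.2 mM pyruvate, reacted 5 minutes at room temperature. Remaining NADH coupled via diaphorase/resazurin; resorufin fluorescence read at 0 and 20 minutes, normalized to enzyme-free and DMSO wells.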
# RGS4 inh: inhibitors of human regulator of G protein signaling 4 | Transcreener GDP fluorescence polarization, RGS4-accelerated GTP hydrolysis | Potency, µM (doses to about 114 µM), for inactives: at the top dose activity change, negative = inhibition, hits mostly inhibitors | 390,000 compounds, 0.039% hits | AID 504845; note: potency is the fitted concentration of half-maximal effect; % is set by controls: 0 for no effect and ±100 for the full control effect; nearly all actives have a fitted effect of over 75% in size; some results filed as inactive show a strong effect at the top dose
# Target sequence (P49798 whole entry, looked up): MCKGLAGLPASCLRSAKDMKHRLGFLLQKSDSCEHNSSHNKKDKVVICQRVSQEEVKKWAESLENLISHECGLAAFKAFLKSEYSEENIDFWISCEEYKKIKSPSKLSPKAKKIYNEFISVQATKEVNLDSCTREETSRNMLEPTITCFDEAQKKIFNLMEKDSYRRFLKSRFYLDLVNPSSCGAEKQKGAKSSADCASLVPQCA
#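 MLSMR compounds (23 nl, pin-transferred) preincubated 10 min at room temperature with a 500nM (2x) first reagent, then RGS4 at 900nM (2x) plus Transcreener GDP mix added; fluorescence polarization (620/688 nm) read before and after 90 min at 30 °C.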
# Vif-A3F inh: blocks the Vif interaction with APOBEC3F | HeLa A3F-eYFP + Vif (tagged APOBEC3F with the HIV-1 protein that degrades it), YFP fluorescence increase | 390,000 compounds, 0.2% hits | Potency, µM (titrated, usually from 46.1 µM), inactives show top-dose activity, negative = active; note: potency is the fitted concentration of half-maximal effect; % of control where 0% means no effect; nearly all actives have a fitted effect of over 65% in size
#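 HeLa cells stably expressing A3F-eYFP plus Vif, plated and incubated overnight at 37 deg C, then exposed to compounds overnight at 37 deg C. Blocked degradation read as raised yellow fluorescence (Ex 488/Em 500-530).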
# Vif-A3G inh: blocks the Vif interaction with human APOBEC3G. Q9HC16. HeLa A3G-eYFP + Vif (tagged APOBEC3G with the HIV-1 protein that degrades it), YFP fluorescence, overnight. Potency, µM (doses to about 46.1 µM), without a hit: at the top dose activity, negative = active, hits mostly inhibitors. 410,000 compounds, 0.076% hits;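 note: potency is the fitted concentration of half-maximal effect; % is set by controls: 0 for no effect and ±100 for the full control effect; nearly all actives have a fitted effect of over 60% in size; hits raise eYFP signal because A3G escapes Vif-driven loss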
# Target sequence (Q9HC16 whole entry, looked up): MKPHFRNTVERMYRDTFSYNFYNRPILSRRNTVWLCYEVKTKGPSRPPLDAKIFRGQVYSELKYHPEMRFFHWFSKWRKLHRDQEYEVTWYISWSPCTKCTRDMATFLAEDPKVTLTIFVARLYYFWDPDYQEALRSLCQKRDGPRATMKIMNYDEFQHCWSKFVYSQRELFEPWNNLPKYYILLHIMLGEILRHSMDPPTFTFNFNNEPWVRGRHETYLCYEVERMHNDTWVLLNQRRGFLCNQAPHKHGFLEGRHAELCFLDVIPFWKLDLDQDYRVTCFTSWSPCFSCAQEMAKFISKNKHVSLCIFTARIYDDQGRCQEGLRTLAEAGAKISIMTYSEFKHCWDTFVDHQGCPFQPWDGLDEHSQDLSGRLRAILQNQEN
#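 HeLa cells stably expressing Vif and C-terminally eYFP-tagged A3G, seeded overnight at 37 deg C, then exposed to compound by pintool overnight at 37 deg C. Rise in yellow fluorescence (Ex 488/Em 500-530, Acumen) marks blocked Vif-driven A3G degradation.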
# * = called active by the depositor; ? = inconclusive; nt = no result given; & = joins results of further samples; [ ] = another dose, or the depositor's remark. Unless noted, calls come from the whole dose curve; as a rule, active = well fitted curve in the direction sought with a large enough effect; inconclusive = small, poorly fitted or top-dose-only effect, or another doubt; inactive = no such curve, though single readings can be large; an effect the other way counts as inactive or inconclusive. These rows are one share of the data; rates above refer to the full screens.
SMILES,D2 antag,D2 agonist,GRP78 ERSR act,ERG-DNA inh,LDHA block,RGS4 inh,Vif-A3F inh,Vif-A3G inh
Cc1cccc(NC(=O)c2cc(-c3ccc(C)c(C)c3O)n[nH]2)c1,-15.6,-0.8,9.6%,2.2%,-0.6,-41.5%,-5.7%,-7.4%
Cc1ccc(C)c(N2N=C(C(=O)NCCN3C(=O)S/C(=C\c4cccnc4)C3=O)CCC2=O)c1,1.7,0.8,-3.4%,-12.2%,7.7,-26.8%,3.5%,-2.1%
Cn1ncc(Br)c1C(=O)O,2.1,2.5,-4.9%,-2.0%,-14.1,9.6%,1.4%,-1.1%
NC(=O)CC(NC(=O)Cc1ccc(Br)cc1)c1ccc(NCCc2ccc(Cl)cc2)c([N+](=O)[O-])c1 (centres undefined),-11.5,0.8,-3.8%,14.1%,-9.6,7.5%,-22.1%,-7.8%
Cc1ccc(-c2csc3ncn(CC(=O)OC(C)C)c(=O)c23)cc1,nt,nt,0.2%,2.7%,1.6,4.4%,-11.6%,-5.7%
COc1ccc(Cl)cc1NC(=O)C1CCCN(c2cc(C)nc3ncnn23)C1 (centres undefined),-6.8,0.2,-4.2%,1.5%,-5.9,-14.5%,-10.1%,-0.5%
O=C(NCc1ccncc1)C(=O)NCC1OCCN1S(=O)(=O)c1ccc(F)cc1 (centres undefined),-5.5,0.0,-4.6%,-0.6%,1.8,7.3%,0.0%,0.4%
C=CCOc1ccc(C2NC(=S)NC(C)=C2C(=O)c2ccccc2)cc1OC (centres undefined),15.6,-1.1,1.5%,3.4%,-2.2,-6.5%,8.4%,0.0%
COCCn1c(SCC(=O)c2ccc(C)cc2)nc2cc(C(=O)NC3CCCC3)ccc2c1=O,nt,nt,-0.8%,1.3%,-2.6,-16.5%,-6.2%,1.7%
CCSc1ncccc1-c1nc2ccccc2[nH]1,7.8,-1.0,-6.0%,3.8%,-2.8,-2.4%,-1.3%,1.4%
Cc1ccccc1NC(=O)CCC(=O)N/N=C/c1cccnc1,0.3,1.2,-5.1%,-15.0%,-1.8,-1.4%,-12.3%,-0.3%
CC(=O)NCCOc1nc(N2CCCCC2)nc(N2CCCCC2)n1,11.1,0.3,-4.9%,-5.0%,-3.1,10.2%,5.7%,4.6%
CS(=O)(=O)Nc1nc2n(n1)C(c1ccccc1)CC(c1ccccc1)N2 (centres undefined),-15.3,0.3,-8.0%,4.2%,-9.1,8.3%,-1.3%,5.5%
CCOc1ccc(S(=O)(=O)Nc2ccc(C(=O)N3CCC3)cc2)cc1,-3.8,0.0,-3.9%,17.5%,-5.5,1.3%,-5.2%,-0.3%
O=S(=O)(c1ccccc1)N1CCN(S(=O)(=O)c2ccccc2)c2ccccc21,nt,nt,-3.4%,-2.7%,-0.1,?,1.8%,-0.4%
CC(/C=C/c1ccc2c(c1)OCO2)=N/NC(=O)COc1ccc(C)cc1,-6.1,-1.2,-1.6%,-4.8%,-4.9,3.8%,?,-8.7%
C[N+](C)(C)CCO,nt,nt,-2.5%&-5.1%&-1.3%,nt,nt,22.3%[56.9 µM],nt,nt
CCN(CC)S(=O)(=O)c1cc(NS(=O)(=O)c2cccc(Cl)c2)ccc1C,3.3,-1.1,-8.3%,0.9%,-7.1,38.2%,-3.7%,1.3%
CC1C(=O)N2CCCc3cc(S(=O)(=O)NCc4ccccc4Cl)cc1c32 (centres undefined),-15.3,-0.2,-3.2%,4.9%,-9.6&2.9,11.4%,1.8%,-4.5%
COc1ccc(Cl)cc1NC(=O)c1cc(S(=O)(=O)N2CCCC2)cn1C,-8.0,-0.4,0.5%,9.2%,-4.1,1.9%,-0.8%,1.0%
O=C(c1ccccn1)N1CC=C(c2ccccc2)CC1,-3.7,1.1,0.5%,4.3%,-4.8,21.2%,0.6%,0.4%
CCCCCCCC[n+]1c(C)n(-c2ccccc2)c2ccc(NC(C)=O)cc21,4.5,1.6,-6.7%,5.8%,-12.2,-2.2%,-2.5%,3.5%
S=C(NCCSCc1c(Cl)cccc1Cl)Nc1ccccc1,-23.1,1.0,1.3%,4.0%,-19.9,9.8%,-5.4%,-0.8%
O=C(Cn1cccc1)NCc1cccs1,-3.5,0.4,-3.6%,-1.9%,-3.8,8.2%,-2.7%,3.0%
Cc1ccc2c(c1)c(Sc1ccccc1)c(CC(=O)O)n2C,-1.1,0.4,-6.5%,2.5%,-1.2,3.1%,6.6%,-3.0%
SMILES,D2 antag,D2 agonist,GRP78 ERSR act,ERG-DNA inh,LDHA block,RGS4 inh,Vif-A3F inh,Vif-A3G inh
CCOC(=O)N1CCN(C(=O)C2CCN(S(=O)(=O)N3CCC4(CC3)OCCO4)CC2)CC1,-25.5,0.3,2.0%,-3.4%,-11.6,-4.2%,-0.8%,1.1%
Cc1cc(C(=O)COC(=O)c2ccc(O)cc2)c(C)n1Cc1ccco1,3.1,1.9,-3.1%,-9.3%,-0.5,-24.6%,-2.7%,1.0%
CCOc1cc(C2C(C(=O)OC(C)C)=C(C)N=C3SCCC(=O)N32)ccc1OC(C)=O (centres undefined),-21.4,-0.1,-2.8%,-0.2%,-7.7,21.0%,0.6%,-7.4%
CCN(CC)S(=O)(=O)c1cccc(C(=O)Nc2ccc(Cl)cn2)c1,17.9,-2.2,-7.4%,5.9%,1.6,15.2%,-2.1%,-0.7%
O=C(CSc1nc(-c2cccs2)cc(C(F)(F)F)n1)NCCCn1ccnc1,2.2,0.7,-3.7%,nt,0.9,15.0%,-2.8%,0.6%
O=C(NC1CCCCC1)N1CCN(c2ccccc2Cl)CC1,-1.2,0.9,1.5%,0.3%,0.1,1.6%,1.0%,2.5%
Cc1ccc(C)c(S(=O)(=O)NC(C)CCc2ccccc2)c1 (centres undefined),14.0,0.6,-4.0%,-3.6%,7.4,-16.7%,-15.9%,-1.5%
O=C1Cc2cc(S(=O)(=O)N3CCN(c4ccc(C(=O)O)cc4)CC3)ccc2N1,nt,nt,-4.8%,nt,2.3,nt,nt,2.3%
CCN(CC(=O)Nc1ccc2c(c1)OCO2)S(=O)(=O)c1ccccc1,9.3,-0.2,-1.0%,10.6%,4.8,-23.4%,-1.5%,-0.1%
CCC1CCCCN1C(=O)Cn1nc([N+](=O)[O-])c(Cl)c1C (centres undefined),3.2,0.4,-4.3%,-9.0%,-5.3,-5.4%,7.9%,-0.4%
Cn1nc(C(=O)NNC(=O)c2ccc(Cl)cc2)ccc1=O,-30.5,-0.2,-1.5%,1.3%,-8.1,29.2%,-4.9%,-1.6%
O=C(O)COc1ccc(/C=C/c2nc3ccc([N+](=O)[O-])cc3s2)cc1,-3.9,0.9,1.6%,13.0%,-5.0,-2.8%[11.4 µM],5.6%,1.5%
CCOc1ccc(Cl)cc1/C=N/O,6.5,-0.9,-4.6%,nt,-11.8,-2.9%,-3.5%,-1.0%
CC(C)OCCCn1c(=S)[nH]c2ccc(N3CCOCC3)cc2c1=O,-13.0,-2.3,0.4%,6.5%,-0.4,-17.8%,2.6%,-4.2%
COc1ccc(NC(=O)CN(C)C(=O)c2ccc(S(=O)(=O)Nc3ccccc3F)cc2)cc1,-3.7,-0.6,1.1%,-2.7%,-6.3,5.4%,-11.3%,0.6%
COCCNC(=O)[C@H]1N2C(=O)c3ccccc3C2SC1(C)C (some centres undefined),-1.7,0.8,-2.9%,-15.8%,-1.3,-14.5%,1.0%,2.6%
COc1cc(CN2CCc3ccccc3C2)ccc1O,19.3,4.5,?,-19.8%,-1.2,21.0%,2.0%,?
COCC(C)n1c(C)cc(C(=O)CSc2ncccn2)c1C (centres undefined),10.5,2.3,1.2%,13.1%,-10.4,-4.8%,1.8%,1.6%
O=C(CCCn1c(=S)[nH]c2cc3c(cc2c1=O)OCO3)N1CCN(c2ccc(Cl)cc2)CC1,-2.1,-0.8,-3.3%,1.8%,0.0,4.8%,-2.3%,2.7%
O=C(O)C1=C[C@@H](O)[C@@H](O)[C@H](O)C1,nt,nt,2.0%&-2.9%,-14.0%,-8.4,12.2%,-1.4%,0.9%
Cc1noc(C(=O)Nc2cccc(O)c2)c1Cl,-10.7,-0.4,2.6%,4.9%,-5.9,8.9%,1.0%,-0.5%
CC(C)Sc1nc(O)c(Cc2ccccc2)c(=O)[nH]1,13.3,0.2,-3.9%,-11.7%,-6.2,41.7%,-3.4%,0.4%
COc1ccc(C(=O)OCC(=O)NC(C)(C)C)cc1[N+](=O)[O-],-5.8,-0.8,-6.5%,nt,-4.0,-0.5%,0.8%,-4.4%
COc1cc(OC)c(OC)cc1CN(C)C(c1ccccc1)c1nnnn1-c1ccccc1C (centres undefined),-9.8,1.1,-0.5%,-6.7%,9.1,-12.7%,-12.4%,-1.3%
CN(C)C(CNc1nnnn1-c1ccccc1)c1ccco1 (centres undefined),-0.6,0.3,-4.8%,1.9%,0.0,-11.4%,1.0%,-0.3%
SMILES,D2 antag,D2 agonist,GRP78 ERSR act,ERG-DNA inh,LDHA block,RGS4 inh,Vif-A3F inh,Vif-A3G inh
COC(=O)c1[nH]c2ccc(C)cc2c1NC(=O)CN1CCN(Cc2ccccc2)CC1,nt,nt,-5.8%,-15.6%,-0.1,-16.9%[11.4 µM],0.9%,3.5%
COC(=O)c1ccccc1NC(=S)NC(=O)COc1ccc(C)cc1,nt,nt,0.3%,1.1%,-5.0,15.5%,-1.4%,-0.7%
N#Cc1cc2c(nc1SCC(=O)O)CCCC2,8.7,0.0,-4.0%,-0.8%,-7.0,-13.2%,nt,0.3%
CC(C)(C)C1CCC2(CC1)C(C#N)=C(SCC(=O)Nc1ccccc1)NC(=O)C2C#N (centres undefined),-2.7,3.4,1.7%,-3.2%,-5.2&3.5,-33.9%,-2.4%,1.8%
NC(N)=NCCN1CCCCCCC1,nt,nt,-2.9%&-3.3%,nt,nt,nt,nt,nt
Cc1cccc(N2CC(C(=O)NCc3ccco3)CC2=O)c1C (centres undefined),18.5,0.1,-1.2%,5.1%,0.7,-10.3%,-11.0%,0.1%
CC(C)CC(=O)NC1(C(F)(F)F)C(=O)N(CC(C)C)C2=C1C(=O)CC(C)(C)C2 (centres undefined),1.2,1.0,-4.0%,4.7%,-3.6,-15.4%,-0.2%,0.2%

# Screens from PubChem BioAssay.
